Prx2 Sm inh = Schistosoma Mansoni Peroxiredoxins (Prx2) | Schistosoma mansoni peroxiredoxin 2 (Prx2) | S. mansoni Prx2 activity coupled to TGR/GSH (TGR is thioredoxin glutathione reductase), NADPH fluorescence loss, qHTS; some inactives read as strong as hits | Potency, µM | actives 0.07% (n = 65,000); active means full or partial inhibition curve with a strong effect at the top dose; inconclusive means weaker partial or single-point curve; inactive means no accepted curve; also: series up to 57 µM; many of its hits are not listed in these tables
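qHTS, coupled TGR/Prx2 format; 15 min compound preincubation at RT; reaction started with H2O2 (2.5 mM aliquot); kinetic NADPH fluorescence decrease, ex 365/em 450 nm.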
Anthrax LT inh = qHTS Assay for Anthrax Lethal Toxin Internalization. Cells, anthrax lethal toxin internalization, FRET ratio (460/530). Potency, µM (titrated, usually from 40 µM), for the others: at the top dose activity change, negative = inhibition, most hits filed as inhibitors. actives 0.67% (n = 70,000). AID 912, 2007; active = well fitted falling ratio curve with the 530 nm signal flat; inconclusive = other ratio curves, or a change in one channel alone; inactive = flat curves in the ratio and both channels; the % refers to the ratio; also: % is scaled to controls: 0 for no effect and ±100 for the full control effect; nearly all actives have a fitted effect of over 50% in size; tested in ME-180 cells; beta-lactamase reporter
* marks the source's active call; other numbers are inactive results; & = joins results of further samples; [ ] = dose if it differs, or a comment. Potency is read from the fitted curve at half-maximal effect.

How did C[C@]1(C2CCCC2)Cc2cc(OCC(=O)O)c(Cl)c(Cl)c2C1=O do in these assays?
Prx2 Sm inh: >57; Anthrax LT inh: 7%

How did C/C(CCN1CCc2nc(-c3ccccc3)c(-c3ccccc3)cc2C1)=N\O[C@@H](C)CN1CCCc2nc(C)c(C)cc21 do in these assays?
Anthrax LT inh: -5%[1.6 µM]

How did CN=C1SC(CC(=O)NCCc2ccc(OC)c(OC)c2)C(=O)N1C (configuration not stated) do in these assays?
Prx2 Sm inh: >57; Anthrax LT inh: 5%

Results for COC(=O)C(F)(Sc1c(C)n(C)n(-c2ccccc2)c1=O)C(F)(F)F (configuration not stated) ?
Prx2 Sm inh: >57; Anthrax LT inh: -3%

How did Cc1n[nH]c(=O)nc1NC1CCCCC1 do in these assays?
Prx2 Sm inh: >57; Anthrax LT inh: 11%

Results for COc1cc2nc(N3CCN(C(=O)[C@@H]4CCCO4)CC3)nc(N)c2cc1OC ?
Prx2 Sm inh: >57; Anthrax LT inh: 9%[3.58 µM]

What do the screens show for `CN(C)S(=O)(=O)c1ccc(S(=O)(=O)Nc2ccc3c(c2)oc2ccccc23)cc1`?
Prx2 Sm inh: >57; Anthrax LT inh: inconclusive

What do the screens show for `CCOCCNC(=O)c1ccccc1C(=O)NCCOCC`?
Prx2 Sm inh: >57; Anthrax LT inh: -6%

Results for Cc1cccc(NC(=O)c2cnc3ccccn3c2=O)c1 ?
Prx2 Sm inh: >57; Anthrax LT inh: 0%

What do the screens show for `CCCc1c(C)c2cccc(C)c2[nH]c1=O`?
Anthrax LT inh: -8%

What do the screens show for `COC(=O)c1ccc(C(NC(=O)OCc2ccccc2)/C(=C/[C@@H](C)C(=O)NCc2ccc(S(C)(=O)=O)cc2)c2cccnc2)cc1` (some centres not stated)?
Anthrax LT inh: 13%

What do the screens show for `Cc1ccc(C2Nc3ccccc3-c3nc4ccccc4n32)o1` (configuration not stated)?
Prx2 Sm inh: >57; Anthrax LT inh: 9%

How did O=C(O)c1ccccc1OP(=O)(O)O do in these assays?
Prx2 Sm inh: >57; Anthrax LT inh: -4%[3.58 µM]

How did COc1cccc(C(=O)Cn2c(=N)n(C)c3ccccc32)c1 do in these assays?
Prx2 Sm inh: >57

Results for COc1cccc(S(=O)(=O)Nc2ccc(C(=O)NCc3ccco3)cc2)c1 ?
Prx2 Sm inh: >57; Anthrax LT inh: 2%

What do the screens show for `CC(=O)Nc1ccc(NC(=O)C2CC(=O)N(c3cccc(C)c3C)C2)cc1` (configuration not stated)?
Prx2 Sm inh: >57; Anthrax LT inh: -12%

What do the screens show for `CCN(CC)S(=O)(=O)c1ccc(/C(O)=C2/C(=O)C(=O)N(CCOC)C2c2ccccc2)cc1` (configuration not stated)?
Prx2 Sm inh: >57

How did O=C1NC(=O)C2(Cc3c(nc4ccccn4c3=O)N3CCCCCC32)C(=O)N1Cc1ccccc1 (configuration not stated) do in these assays?
Prx2 Sm inh: >57; Anthrax LT inh: inconclusive

How did CCOC(=O)N1CCN(c2c(NCCCN(CC)Cc3ccccc3)c(=O)c2=O)CC1 do in these assays?
Prx2 Sm inh: >57; Anthrax LT inh: 2%

What do the screens show for `CCc1noc(C)c1C(=O)N1CCCC1`?
Prx2 Sm inh: >57; Anthrax LT inh: -1%

Results for CCCCCc1nnc(NC(=O)Cc2cccs2)s1 ?
Prx2 Sm inh: >57; Anthrax LT inh: 14%

Results for CCCN1Cc2cccc(C(=O)NCc3ccccc3)c2C1=O ?
Prx2 Sm inh: >57; Anthrax LT inh: 25%

How did COc1c2occc2c(OC)c2c(=O)cc(C)oc12 do in these assays?
Prx2 Sm inh: >57; Anthrax LT inh: -5%[3.58 µM]

Results for Cc1cccc(C)c1OCCOCCN1CCN(C)CC1 ?
Prx2 Sm inh: >57; Anthrax LT inh: -18%

Results for COC(=O)NC/C=C\c1nc(CC/C=C\C(=O)O[C@H]2C[C@H]3CC(=O)O[C@@H](/C=C\CC(C)C)C[C@@H]4CC[C@H](C)[C@H](C[C@@H](OC)C[C@H](C2)O3)O4)co1 ?
Anthrax LT inh: 18%[8 µM]

How did N#Cc1ccc(CN2CCC3(CC2)CCN(C(=O)c2cnccn2)CC3)cc1 do in these assays?
Prx2 Sm inh: >57; Anthrax LT inh: inconclusive

What do the screens show for `CN1CC[C@@]2(CCCN(C(=O)c3cccc(F)c3)C2)C1`?
Prx2 Sm inh: >57; Anthrax LT inh: -5%

What do the screens show for `COc1ccc2c(c1OC)C(=O)OC2Nn1cncn1` (configuration not stated)?
Prx2 Sm inh: >57; Anthrax LT inh: 3%

What do the screens show for `COc1ccc(-c2nc(N3CCCC3)nc3nn4c(C)cc(C)nc4c23)cc1`?
Prx2 Sm inh: >57; Anthrax LT inh: -2%

Results for COc1ccccc1-c1noc(-c2ccccc2)n1 ?
Prx2 Sm inh: >57; Anthrax LT inh: -21%

How did NC(=O)C1(N2CCCCC2)CCN(C(=O)CSc2nc3ccccc3s2)CC1 do in these assays?
Prx2 Sm inh: >57; Anthrax LT inh: 10%

Results for NCc1ccc(S(N)(=O)=O)cc1 ?
Prx2 Sm inh: >57; Anthrax LT inh: -2%[3.58 µM]

How did CCCCOc1c(Cl)cc(CNC(C)(C)CO)cc1OCC do in these assays?
Prx2 Sm inh: >57; Anthrax LT inh: -3%

What do the screens show for `O=C(CCCOc1ccccc1)Nc1nnc(C2CCCO2)s1` (configuration not stated)?
Prx2 Sm inh: >57; Anthrax LT inh: 0%

How did CN(Cc1ccccc1)C(=O)c1cc(-c2ccc(Br)cc2)on1 do in these assays?
Prx2 Sm inh: >57; Anthrax LT inh: 3%

Results for c1ccc(Cn2nnc3c(N4CCN(Cc5ccc6c(c5)OCO6)CC4)ncnc32)cc1 ?
Prx2 Sm inh: >57; Anthrax LT inh: -7%

Results for Cc1ccc(NS(=O)(=O)c2cccc(C(=O)N3CCOCC3)c2)cc1 ?
Prx2 Sm inh: >57; Anthrax LT inh: 2%

What do the screens show for `Cc1ccc(CCN2CC(C(=O)N3CCC4(CC3)OCCO4)CC2=O)cc1` (configuration not stated)?
Prx2 Sm inh: >57; Anthrax LT inh: -1%

What do the screens show for `COc1ccc(/C(O)=C(\C#N)c2nc3ccccc3n2C)cc1OC`?
Prx2 Sm inh: >57; Anthrax LT inh: 6%

How did O=C(NCCSc1c[nH]c2ccccc12)c1ccc(Br)o1 do in these assays?
Prx2 Sm inh: >57; Anthrax LT inh: inconclusive

Results for Cc1ccc(OCc2nn3c(-c4n[nH]c5c4CCC5)nnc3s2)cc1 ?
Prx2 Sm inh: >57; Anthrax LT inh: inconclusive

How did COc1ccc(CNC(=O)C(C)Cc2ccccc2)cc1O (configuration not stated) do in these assays?
Anthrax LT inh: -5%

What do the screens show for `Cc1ccc(S(=O)(=O)N2CCC(C(=O)N3CCC(C(=O)NCC4CCCO4)CC3)CC2)cc1` (configuration not stated)?
Prx2 Sm inh: >57; Anthrax LT inh: 7%

How did CCc1ccc(CCC(=O)Nc2nc(CC(C)=O)ns2)o1 do in these assays?
Prx2 Sm inh: >57; Anthrax LT inh: inconclusive

How did CC(=O)Nc1cccc(NC(=O)CCn2c(=O)sc3ccccc32)c1 do in these assays?
Prx2 Sm inh: >57; Anthrax LT inh: 16%

What do the screens show for `Cc1cccc(-n2c(Cc3cc(=O)[nH]c(=O)[nH]3)nnc2SCC(=O)NCc2ccco2)c1`?
Prx2 Sm inh: >57; Anthrax LT inh: 2%

What do the screens show for `CC(=O)c1ccc(NC(=O)N[C@@H](CC(C)C)C(=O)O)cc1`?
Prx2 Sm inh: >57; Anthrax LT inh: -3%

Results for O=C(c1cc2ccccc2oc1=O)N1CCN(c2ccccn2)CC1 ?
Prx2 Sm inh: >57; Anthrax LT inh: 9%

Results for O=C(c1ccncc1)N1CCC[C@@]2(CCN(Cc3nccs3)C2)C1 ?
Prx2 Sm inh: >57; Anthrax LT inh: 6%

Results for CCOC(=O)c1cccc(NC(=O)C(C)N2C(=O)c3ccccc3C2=O)c1 (configuration not stated) ?
Prx2 Sm inh: >57; Anthrax LT inh: -17%

Results for Cn1c(SCc2ccon2)nc2ccccc2c1=O ?
Prx2 Sm inh: >57

How did COc1ccc(/C=N/n2c(N)nc3ccccc32)cc1OC do in these assays?
Prx2 Sm inh: >57; Anthrax LT inh: -7%

How did CCn1c(SCC(=O)Nc2ccccc2C(=O)OC)nc2c1c(=O)n(C)c(=O)n2C do in these assays?
Anthrax LT inh: -2%

How did C=CS(=O)(=O)c1ccc(Oc2ccc(S(=O)(=O)C=C)cc2)cc1 do in these assays?
Prx2 Sm inh: inconclusive; Anthrax LT inh: 4µM*

Results for CCN(CC)CCn1nc(C)nc1-c1ccccc1O ?
Prx2 Sm inh: >57; Anthrax LT inh: -1%

What do the screens show for `Cc1cc(C)c(S(=O)(=O)Nc2cccc(C(F)(F)F)c2)c(C)c1`?
Prx2 Sm inh: >57; Anthrax LT inh: inconclusive

Results for CCOC(=O)N1CCC(NC(=O)Cn2cccc2C(=O)c2ccccc2C)CC1 ?
Prx2 Sm inh: >57; Anthrax LT inh: 6%

Results for O=C(CCCOc1ccccc1)Nc1ccncc1 ?
Prx2 Sm inh: >57; Anthrax LT inh: 4%

How did O=C(NCCc1ccncc1)C(F)(F)F do in these assays?
Prx2 Sm inh: >57; Anthrax LT inh: -4%

What do the screens show for `O=C(CCS(=O)(=O)c1cccc2nonc12)N1CCN(c2ccc(F)cc2)CC1`?
Prx2 Sm inh: >57; Anthrax LT inh: 5%

How did COc1cc(NC(=O)CSc2nc(C)cs2)cc(OC)c1 do in these assays?
Prx2 Sm inh: >57; Anthrax LT inh: 0%

How did Cc1c(C(=O)NCC2CCCO2)sc2nc(-c3ccc(F)cc3)cn12 (configuration not stated) do in these assays?
Prx2 Sm inh: >57; Anthrax LT inh: 0%

Results for O=C(Nc1nc(-c2cccs2)cs1)c1ccc(S(=O)(=O)N2CCCCC2)cc1 ?
Prx2 Sm inh: >57; Anthrax LT inh: inconclusive

Results for COc1ccc(OC)c(NS(=O)(=O)c2ccc(Cl)s2)c1 ?
Prx2 Sm inh: >57; Anthrax LT inh: 3%

What do the screens show for `O=C(CCOc1ccccc1)NCC(c1ccco1)N1CCCCC1` (configuration not stated)?
Prx2 Sm inh: >57; Anthrax LT inh: 1%

What do the screens show for `COc1ccc(C)cc1N(CC(=O)NC1CCCC1)C(=O)CCC(=O)Nc1cc(C)on1`?
Prx2 Sm inh: >57; Anthrax LT inh: 0%

Results for CCCCn1c(=O)n(CC(O)c2ccccc2)c(=O)c2c1ncn2C1CCCC1 (configuration not stated) ?
Prx2 Sm inh: >57; Anthrax LT inh: inconclusive

Results for CCCCc1ccc(NC(=O)C2CCN(S(C)(=O)=O)CC2)cc1 ?
Prx2 Sm inh: >57; Anthrax LT inh: inconclusive

What do the screens show for `NC(N)=NN=Cc1c(Cl)cccc1Cl`?
Prx2 Sm inh: >57&>57&>57; Anthrax LT inh: inconclusive

Results for CC1CCCN(Cc2nc3c(c(=O)n(C)c(=O)n3C)n2CCc2ccccc2)C1 (configuration not stated) ?
Prx2 Sm inh: >57; Anthrax LT inh: -11%

How did COc1ccc(NC(=O)C2CCCCN2S(=O)(=O)c2ccc(F)cc2)c(OC)c1 (configuration not stated) do in these assays?
Prx2 Sm inh: >57; Anthrax LT inh: 13%

How did COc1cc(CC(=O)OCC(=O)Nc2ncc(Cl)cc2Cl)cc(OC)c1OC do in these assays?
Prx2 Sm inh: >57; Anthrax LT inh: 6%

What do the screens show for `O=C(NCc1ccco1)c1ccc(NC(=O)C2COc3ccccc3O2)cc1` (configuration not stated)?
Prx2 Sm inh: >57; Anthrax LT inh: -26%

What do the screens show for `CC(=O)c1cccc(NC(=O)C2C3C=CC(C4CC34)C2C(=O)O)c1` (configuration not stated)?
Prx2 Sm inh: >57; Anthrax LT inh: 3%

How did c1ccc(CCn2nnnc2CN2CCN(C3CCCC3)CC2)cc1 do in these assays?
Prx2 Sm inh: >57; Anthrax LT inh: -14%

Bioassay records as filed in PubChem BioAssay.

Not all compounds are listed, so the mix of outcomes need not match the whole.
